ugtP null kill: kills S. aureus RN4220 lacking UgtP | S. aureus RN4220 ugtP deletion, OD600 growth, 16 h; some inactives read as strong as hits | growth inhibition, % (no concentration beside the values) | hit rate 0.54% among 330,000 | AID 1259309;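 active = z-score under -3 and OD600 up to 0.15 on both plates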;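 note: plate controls were untreated wells for no effect and antibiotic for full effect; wells of about 80 µL received 100 nL stock; the first replicate is given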
Mtb hypoxia rep: inhibitors of hypoxia-regulated fluorescent reporter in Mycobacterium tuberculosis | M. tuberculosis hypoxia-regulated fluorescent reporter, fluorescence | fluorescence inhibition, % (no concentration beside the values) | hit rate 0.1% among 300,000;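 active = 35 to 45% if threefold the growth effect, above 45% if 1.5-fold the growth effect; inactive = the rest, general growth blockers included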;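 note: wells of about 50 µL received 100 nL stock; 0% = vehicle wells and 100% = reference inhibitor wells; whole bacteria with a GFP reporter of the hypoxia response; strong numbers were not always called active; many hits fall short of the cut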
Autofluor counter: counter-screen for toxin protease inhibitors: compound fluorescence. compound autofluorescence counterscreen, microsphere flow cytometry; active compounds read high. fluorescence intensity (concentration not given with the values). hit rate 3.1% among 360,000. AID 624483;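 active = at least 3 SD above the mean of all compounds, about 16000 in these data; inconclusive = too few beads counted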;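 note: 100 nL of 1 mM stock went into each well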
RN4220 kill: S. aureus RN4220 growth inhibition | OD600, 16 h | inhibition, % (no concentration beside the values) | hit rate 0.33% among 330,000;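 active = z-score of -3 or lower and OD600 up to 0.18 on both plates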;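 note: plate controls were untreated cells for no effect and reference antibiotic for full effect; stock transfer was 100 nL into about 80 µL; one replicate is shown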
BJeLR viability: BJeLR cell viability loss; AID 1554; BJeLR (HRASV12) viability, CellTiter-Glo ATP luminescence, 48 h; reference of the scale not given here; hit rate 0.17% among 300,000; inhibition, % (no concentration beside the values);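 active = replicate mean above 50%; inconclusive = above 50% but judged a plate artefact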;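 note: 50 nL library stock added to about 25 µL; numbers are from one replicate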
PrP 5UTR inh: inhibition of PrP 5' UTR reporter expression | cell-based PrP 5' UTR mRNA reporter, plate reader | inhibition, % (concentration not given with the values) | hit rate 0.35% among 340,000;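 active = every replicate at 50% or more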;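 note: 0 = median of the neutral control wells; tested in H4 reporter cells; numbers are from one replicate; inactives centre near -14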
Mtb hypoxia rep growth: further read-out of Mtb hypoxia rep, marked with its call; growth inhibition, %; measured here: M. tuberculosis growth (absorbance);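 0% = vehicle and 100% = reference antibiotic; read after six days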
An asterisk follows results filed as active; u = inconclusive; x = not tested or not shown.

SMILES	ugtP null kill	Mtb hypoxia rep	Mtb hypoxia rep growth	Autofluor counter	RN4220 kill	BJeLR viability	PrP 5UTR inh
COc1ccc(NC(=O)CS(=O)CC(=O)Nc2ccc(-n3cnnn3)c(C)c2)cc1 (configuration not stated)	8	1	-1	5377	3.8	-5	-7
CC(C)(C)n1nc2c(c1NC(=O)c1ccc(Cl)c([N+](=O)[O-])c1)CS(=O)(=O)C2	13	5	1	4162	6.6	2	-10
CC(C)(C)S(=O)(=O)N1C[C@@H]2CC/C=C\C/C=C\2[C@H]1CCO	3	-7	6	3567	3.7	x	-23
O=C(NNc1ncnc2c1cnn2-c1ccc(F)cc1)c1cccs1	4	11	2	4039	-0.4	8	-26
Cn1c(/C(C#N)=C(\O)c2ccc([N+](=O)[O-])cc2)nc2ccccc21	11	3	9	4511	0.9	0	-14
O=C(O)CCC(=O)Nc1nc2nccc(-c3ccccc3)n2n1	10	-14	-3	4580	3.8	9	x
CCOC(=O)C(=O)NCC(c1cccs1)S(=O)(=O)c1ccc(C)cc1 (configuration not stated)	7	8	4	5123	2.1	-2	-20
N#Cc1c(SCC(=O)Nc2nccs2)sc2c(O)cc(=O)[nH]c12	x	x	x	6052	x	-11	-32
O=c1c2ccccc2nc2n1CC/C2=C\N1CCN(c2ccc([N+](=O)[O-])cc2)CC1	-1	-10	-6	4377	0.3	1	-2
C[C@H](CO)N1C[C@H](C)[C@@H](CN(C)S(=O)(=O)c2cccs2)Oc2ccc(NS(=O)(=O)c3ccccc3)cc2CC1=O	-1	1	3	4652	3.1	x	-11
O=C1SCC(c2ccc(Cl)cc2Cl)=NN1Cc1nnc(-c2ccccc2)o1	3	12	3	2404	18	3	1
COc1ccccc1C=NNC(=Nc1ccc(C)cc1)c1nc2ccccc2s1	-1	1	7	x	-3.0	x	x
Cc1ccc(S(=O)(=O)NCC(=O)N(CC(=O)NCC2CCCO2)Cc2ccccc2)cc1 (configuration not stated)	0	x	x	5903	2.0	-12	-8
CCc1ccc(C(=O)Nc2ccc(OC)c(S(=O)(=O)N3CCOCC3)c2)cc1	-5	2	9	3984	-7.2	4	-28
Cc1ccc(CN2CC(C(=O)Nc3ncccc3C)CC2=O)cc1 (configuration not stated)	7	9	1	5699	0.9	-26	-4
O=C(/C=C/c1ccc(Cl)cc1Cl)N(Cc1ccc(Cl)cc1)C1CCS(=O)(=O)C1 (configuration not stated)	4	0	1	2023	3.7	0	-11
Cc1[nH]n(-c2ccccc2)c(=O)c1N=Nc1cccc(S(=O)(=O)N2CCOCC2)c1	1	-3	-1	2350	-3.8	-2	-6
O=C(CCN1C(=O)/C(=C/c2cccs2)SC1=S)NC1=NCCS1	38	4	-13	2186	5.8	x	-15
O=C(CCCC(=O)Nc1cccc(Br)c1)NN=Cc1cc([N+](=O)[O-])ccc1O	79	-7	-1	x	88*	x	x
CCOc1ccc(NC(=O)CN(C)C(=O)CN2C(=O)C3CC=CCC3C2=O)cc1OCC (configuration not stated)	-5	0	0	5824	2.7	-4	-12
O=C(Cn1nc(C(=O)O)c2ccccc2c1=O)Nc1ccccc1C(F)(F)F	-5	-18	0	3506	0.0	-2	-28
COc1ccc(S(=O)(=O)N2CCCCC2)cc1NC(=O)c1cc([N+](=O)[O-])ccc1N1CCOCC1	6	-2	0	4572	4.4	-7	0
COc1cccc(OC)c1C(=O)Nc1nnc(C(C)C)s1	11	3	5	6094	14	9	-3
COC(=O)c1cccc(S(=O)(=O)N2CCCCC2)c1	6	10	5	12134	1.7	-6	x
Cc1ccc(OP(=O)(Nc2cccc(C)c2)Oc2ccc(C)cc2)cc1	-9	-2	1	4030	-13	-3	-23

By substructure: the compounds so far with fluorine.
SMILES	ugtP null kill	Mtb hypoxia rep	Mtb hypoxia rep growth	Autofluor counter	RN4220 kill	BJeLR viability	PrP 5UTR inh
O=C(NNc1ncnc2c1cnn2-c1ccc(F)cc1)c1cccs1	4	11	2	4039	-0.4	8	-26
O=C(Cn1nc(C(=O)O)c2ccccc2c1=O)Nc1ccccc1C(F)(F)F	-5	-18	0	3506	0.0	-2	-28

More structures.
SMILES	ugtP null kill	Mtb hypoxia rep	Mtb hypoxia rep growth	Autofluor counter	RN4220 kill	BJeLR viability	PrP 5UTR inh
O=C(CCCn1c(=S)[nH]c2cc3c(cc2c1=O)OCO3)N1CCN(c2ccccn2)CC1	-2	2	12	19027*	9.3	x	2
Cc1cccc(C)c1NC(=S)N1CCC(N(C)CC2CCCO2)CC1 (configuration not stated)	-3	2	1	10073	0.2	4	-41
CCCN1C(=O)c2ccccc2NC1c1ccc(Cl)cc1 (configuration not stated)	8	-9	-7	3064	-0.7	0	-5
CCOc1ccc(C(c2c(NC(=O)c3ccccc3)sc(C)c2C)N2CCN(C)CC2)cc1 (configuration not stated)	-8	2	-2	2382	-3.6	-1	-12
Cc1cc(O)c(NC(=S)NC(=O)c2ccc(-c3ccc(Cl)cc3)o2)cc1C	17	x	x	2541	21	0	-4
Cc1ccc(S(=O)(=O)N(C)C)cc1NC(=O)COC(=O)CCCOc1ccccc1	10	5	9	5733	0.9	-13	-2
COc1cc(/C=C(/Sc2nnc(-c3ccc(F)cc3)o2)C(=O)O)ccc1OC(F)F	10	7	7	4400	8.3	-5	-51
CC(C)CCNC(=O)C(Cc1ccccc1)NS(=O)(=O)c1ccc2c(c1)c(=O)n(C)c(=O)n2C (configuration not stated)	-9	-4	-7	5664	-0.8	-4	-3
Cc1ccccc1NC(=O)c1cccc2nccnc12	-3	6	-1	10951	5.9	4	-30
COc1ccccc1NC(=O)NC1(C(=O)N2CCC(O)CC2)CCCCC1	5	x	x	4452	1.5	4	-17
COC(=NC1CCCC1)C(O)c1c[nH]c2ccccc12 (configuration not stated)	-4	18	8	3865	1.4	-5	-4
Cc1ccc(-c2nnn(CC(=O)N(CCN3CCOCC3)C(C(=O)NC(C)(C)C)c3ccc(C)o3)n2)cc1 (configuration not stated)	-8	11	12	4363	1.2	-3	-15
O=C1c2ccccc2C(=O)N1OCc1ccccc1[N+](=O)[O-]	-1	-9	-2	3532	3.7	-4	-12
CC(C)(C)NC(=O)CC1C[C@H](C(=O)N2CCOCC2)[C@@]2(C)c3[nH]c4ccccc4c3CCN2C1=O (some centres not stated)	-1	2	10	3827	2.5	x	-6
CCN1CCS/C1=C/C=C/C1=[N+](CC)CCS1	-1	20	17	2188	4.6	-7	-23
COc1ccc2cc(C(c3nnnn3CCc3ccccc3)N3CCCC(C)C3)c(=O)[nH]c2c1 (configuration not stated)	-6	-8	6	13466	-1.7	-1	-1
COCCN(C(=O)COC(=O)c1c(-c2ccccc2)noc1C)c1c(N)n(Cc2ccccc2)c(=O)[nH]c1=O	5	4	9	5739	4.2	-6	-27
CCCCOc1ccc(CSC(=N)N)cc1Cl	x	x	x	3634	x	-1	-14
Cc1onc(-c2ccccc2Cl)c1C(=O)NC(=S)Nc1ccccc1F	12	5	2	2479	3.7	-1	-20
Cc1ccc2nc(-c3ccc(N4C(=NC(=O)CCC(=O)O)SC5CS(=O)(=O)CC54)cc3)sc2c1 (configuration not stated)	-5	13	8	2071	7.0	0	-65
CC1(C)CC(=O)C2=C(C1)OC(N)=C(C#N)[C@@H]2c1ccccc1[N+](=O)[O-]	9	0	-2	x	5.0	11	6
COc1ccc(OC)c(N2C(=O)/C(=C/c3ccco3)C(=O)NC2=S)c1	10	17	1	x	15	6	x
O=C(Cc1cccs1)Nc1cccc(-c2nc3ccccc3o2)c1	-1	x	x	3891	0.5	1	-23
CCOc1ccc(NC(=O)CSc2nc3ccccc3nc2N2CC(C)OC(C)C2)cc1 (configuration not stated)	8	3	-2	4447	7.0	-8	-7
O=C1c2ccccc2NC(c2cccnc2)N1c1ccccc1F (configuration not stated)	x	x	x	2449	x	-3	-36

Remaining list, next part:
SMILES	ugtP null kill	Mtb hypoxia rep	Mtb hypoxia rep growth	Autofluor counter	RN4220 kill	BJeLR viability	PrP 5UTR inh
COc1ccc(NC(=O)c2nn(C)c(C(=O)Nc3ccc(OC)cc3)c2[N+](=O)[O-])cc1	7	16	3	3404	4.0	-2	-18
Cc1ccc(N2C(=O)C3CCCN3C2=S)c(C)c1 (configuration not stated)	3	4	12	3885	2.0	x	-1
COc1ccc(CNC(=O)c2cnc3cc(C)ccn3c2=O)cc1	-4	7	1	6395	-0.7	9	-20
Cc1cc(=O)[nH]c2c1c(C)nn2C(C)(C)C	-3	6	5	3806	2.0	-8	-19
COCCN1CCN(C(=O)C2CCC(=O)N(CCc3ccccc3)C2)CC1 (configuration not stated)	4	2	-4	5604	0.5	1	-19
CC#CCN1c2ccccc2[C@]23CC(C(=O)OC)N=C2NC(C(=O)OC)=C(C(=O)OC)C13 (some centres not stated)	2	11	12	x	1.3	x	x
Cc1ccc(S(=O)(=O)Oc2ccccc2/C=N/O)cc1	x	x	x	2038	x	5	-45
O=P(C(Cl)Cl)(N1CCOCC1)N1CCOCC1	8	9	-4	3899	1.4	-8	-20
O=C1C2C3C=CC(C3)C2C(=O)N1Cc1cccnc1 (configuration not stated)	3	6	10	2466	-15	8	-12
C#CCNC(=O)C1=CC(c2cn(C(C)=O)c3ccccc23)C(CCCO)C(OCC)O1 (configuration not stated)	-4	3	3	x	7.0	x	x
O=C(O)c1cc(NN=Nc2cccc([N+](=O)[O-])c2)cc([N+](=O)[O-])c1	0	4	-4	5966	6.3	5	-18
CC1=C/C(=N\OS(=O)(=O)c2ccccc2)C=CC1=O	x	x	x	2290	x	91*	-13
Cc1nn2c3c(cnc2c1-c1ccccc1)C(=O)CC(c1ccccc1)C3 (configuration not stated)	51	5	3	11944	16	0	-20
CCN(C(=O)CSc1nc2ccccc2o1)C1CCS(=O)(=O)C1 (configuration not stated)	0	-9	3	x	-2.7	3	-28
CC1CN(C(=S)Nc2ccc(F)cc2F)CC(C)O1 (configuration not stated)	1	9	1	4783	0.5	-1	-14
CCCOc1ccc(/C=C/C(=O)OCC(=O)N(C)c2c(N)n(Cc3ccccc3)c(=O)[nH]c2=O)cc1OCC	x	x	x	u	x	-4	-22
O=C(CC1(O)C(=O)c2ccccc2C1=O)c1ccccc1	3	19	18	2495	5.2	1	-18
CSCCC(N=Cc1c(O)n(-c2ccc(Br)cc2)c(=O)[nH]c1=O)C(=O)OC(C)(C)C (configuration not stated)	-1	-13	0	21352*	1.1	-3	-10
Cc1ccc(NC(=O)C2CCN(S(C)(=O)=O)CC2)cc1Cl	-7	-11	5	3958	-2.2	-6	1
CC(=O)N(Cc1ccccc1)Cc1nc2sc(C)c(C)c2c(=O)[nH]1	-5	-7	5	3475	14	-5	2
COc1cc2[nH]c(=O)n(C3CCCCC3)c(=O)c2cc1OC	-11	4	10	3563	-0.8	12	-6
Cn1c(=O)c2c(nc(CN3CCOCC3)n2CCCc2ccccc2)n(C)c1=O	3	1	7	8804	0.0	3	-7
COc1cc2c(cc1OC)C(C)N(C(=O)c1c(-c3ccccc3)noc1C)CC2 (configuration not stated)	4	-5	8	3974	1.6	15	-27
CC(=O)Oc1ccccc1C1OCCN1C(C)=O (configuration not stated)	0	x	x	4641	5.7	-8	-17
C=C1CCN(C(CC(C)C)C(=O)NCc2ccc(Cl)c(Cl)c2)S(=O)(=O)c2ccccc21 (configuration not stated)	1	15	13	x	-3.5	x	x
COc1ccc(/C=N/Nc2ncc(C(F)(F)F)cc2Cl)c(OC)c1OC	x	x	x	2484	x	15	-139
Cc1ccc(SCc2nc(N)nc(Nc3ccccc3C)n2)c(C)c1	x	x	x	2197	x	16	-15
COc1ccc(C2(c3ccc(OC)cc3)NC(=O)NC2=O)cc1	4	-5	13	3832	3.3	-2	-15

One compound at a time, from the list above:
CC(C)(C)n1nc2c(c1NC(=O)c1ccc(Cl)c([N+](=O)[O-])c1)CS(=O)(=O)C2 across the screens: ugtP null kill = 13; Mtb hypoxia rep = 5; Mtb hypoxia rep growth = 1; Autofluor counter = 4162; RN4220 kill = 6.6; BJeLR viability = 2; PrP 5UTR inh = -10
N#Cc1c(SCC(=O)Nc2nccs2)sc2c(O)cc(=O)[nH]c12 across the screens: ugtP null kill = x; Mtb hypoxia rep = x; Mtb hypoxia rep growth = x; Autofluor counter = 6052; RN4220 kill = x; BJeLR viability = -11; PrP 5UTR inh = -32
Cc1cc(O)c(NC(=S)NC(=O)c2ccc(-c3ccc(Cl)cc3)o2)cc1C across the screens: ugtP null kill = 17; Mtb hypoxia rep = x; Mtb hypoxia rep growth = x; Autofluor counter = 2541; RN4220 kill = 21; BJeLR viability = 0; PrP 5UTR inh = -4

Bioassay records (PubChem BioAssay)
